# Screens from PubChem BioAssay.
# MT1-MMP act inh = inhibitors of human MT1-MMP activation. P50281. HT1080 RFP-PRO-GFP cells, GFP/RFP ratio fluorescence, overnight; percent of plate control window, DMSO zero. GFP/RFP ratio change, % at 20 µM. hit rate 0.061% among 360,000. AID 651647;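 active = GFP/RFP ratio change of at least 30% with cell ATP level not reduced by more than half and red fluorescence within 50% of control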; note: strong numbers were not always called active
#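 Compound: 20 µM single dose, 1% DMSO / System: HT1080 RFP-PRO-GFP cells / Controls: DMSO and RFP-L50D-GFP cell wells / Read-out basis: GFP/RFP fluorescence ratio / Schedule: overnight compound exposure at 37 °C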
# PABP FP inh = PABP-poly(A) binding inhibition; P11940; PABP-poly(A) RNA binding, fluorescence polarization; inhibition, % at 35 µM; hit rate 1% among 290,000;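 active = 50% or more with normal probe brightness, or confirmed in later tests; inconclusive = above 50% with abnormal brightness, or retests that disagree; inactive = below 50% or failed in later tests; about a fifth of its hits are not listed in these tables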;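 note: calls also rest on retests at 20 µM and on dose response follow-up; controls were probe without protein and protein plus probe with vehicle; some compounds called inactive have numbers as strong as hits; many hits fall short of the cut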
# Target sequence (P11940 whole entry, looked up): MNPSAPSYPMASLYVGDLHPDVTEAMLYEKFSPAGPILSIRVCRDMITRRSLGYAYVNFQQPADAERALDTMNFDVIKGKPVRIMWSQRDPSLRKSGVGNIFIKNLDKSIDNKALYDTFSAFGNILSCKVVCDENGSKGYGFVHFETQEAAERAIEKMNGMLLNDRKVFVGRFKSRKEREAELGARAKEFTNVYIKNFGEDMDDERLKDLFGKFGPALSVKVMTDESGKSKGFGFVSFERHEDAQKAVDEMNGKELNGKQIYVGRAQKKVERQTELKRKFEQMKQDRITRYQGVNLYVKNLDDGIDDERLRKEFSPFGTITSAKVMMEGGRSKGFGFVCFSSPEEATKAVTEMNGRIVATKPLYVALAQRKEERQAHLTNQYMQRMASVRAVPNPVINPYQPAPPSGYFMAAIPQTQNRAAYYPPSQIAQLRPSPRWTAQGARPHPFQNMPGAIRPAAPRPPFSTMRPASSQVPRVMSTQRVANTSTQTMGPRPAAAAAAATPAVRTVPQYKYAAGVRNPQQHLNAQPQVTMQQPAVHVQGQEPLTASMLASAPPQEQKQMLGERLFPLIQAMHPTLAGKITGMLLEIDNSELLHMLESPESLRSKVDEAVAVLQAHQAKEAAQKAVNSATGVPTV
# Env fusion inh = HIV envelope-mediated fusion inhibition; HeLa-JRFL Env/CEM21 cell fusion, luciferase; inhibition, % at 12.3 µM; hit rate 1.1% among 360,000;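 active = mean replicate inhibition score of at least 50 and every replicate individually at or above 50; inconclusive = only one of the two criteria met; inactive = mean below 50 and not all replicates reaching 50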;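 note: 0% = plate neutral controls and 100% = maraviroc near 300 nM; one replicate is shown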
# CSC inhib = cancer stem cell inhibition. hit rate 1.1% among 300,000. cancer stem cell-like cells viability, luminescence. AID 2717. inhibition, % at 7.5 µM;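 active = mean at 75% or more and at least half the replicates too; inconclusive = mean and replicates disagree; tested in HMLE shEcad cells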;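 note: 0% = median of negative and 100% = median of positive control wells; the first replicate is given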
# Yeast UUG start = modulators of start codon recognition fidelity in yeast. S. cerevisiae UUG-firefly luciferase reporter, luminescence/redox ratio. activity score, % at 18.7 µM. hit rate 0.13% among 350,000. AID 602363;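 active = replicate mean at a twofold rise or more, about +100% in these data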;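 note: firefly luciferase made from a UUG start codon reports start codon fidelity; reporter light over untreated wells divided by growth signal over untreated wells; some hits fall short of that in this replicate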
# Rce1 inh = inhibitors of yeast Ras-converting enzyme | yeast membranes, quenched prenylated peptide cleavage fluorescence | calls only | hit rate 0.27% among 290,000;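 active = fall in fluorescence gain of 50% or more versus controls, with final raw signal at or below 3038400; inconclusive = same 50% fall but final raw signal above 3038400; inactive = fall in fluorescence gain under 50%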;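 note: plate controls were neutral control wells for no effect and wells lacking membranes for full effect; tested at 10 µM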
# eIF4H FP inh = inhibitors of RNA binding by human eIF4H. Q15056. eIF4H fluorescence polarization binding assay. inhibition, % at 35 µM. hit rate 0.94% among 290,000. AID 2012;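 active = 50% or more with normal probe brightness, or confirmed in later tests; inconclusive = above 50% with abnormal brightness, or retests that disagree; inactive = below 50% or failed in later tests; about a fifth of its hits are not listed in these tables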;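 note: calls also rest on retests at 20 µM and on dose response follow-up; 0% = protein and probe with vehicle and 100% = probe without protein; strong numbers were not always called active; many hits fall short of the cut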
# MT1-MMP act inh RFP = second read-out of MT1-MMP act inh, no call of its own (marks repeat the call); RFP signal change, %; measured here: RFP expression control read;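 0 = vehicle wells; hits needed this value within 50% of zero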
# An asterisk follows results filed as active; i = inactive; ? = inconclusive; . = no result given.
SMILES,MT1-MMP act inh,MT1-MMP act inh RFP,PABP FP inh,Env fusion inh,CSC inhib,Yeast UUG start,Rce1 inh,eIF4H FP inh
CCc1nc2ccc(C(=O)Nc3ccc(NC(C)=O)cc3)cc2nc1CC,3.6,3.4,1.4,6.9,.,0.1,i,2.5
CN(C)c1ccc(N2CC(C)(C)C2=O)cc1,-0.6,3.8,-1.5,-5.4,-10.9,.,i,9.0
O=C(Nc1ccc(N2CCOCC2)cc1)c1cccc(S(=O)(=O)N2CCCC2)c1,1.7,0.3,-1.2,0.2,-11.2,.,i,5.9
C=CCN1C(=O)c2ccccc2Sc2ccc(C(=O)N3CCN(C)CC3)cc21,-4.6,0.1,-2.5,.,19.4,-18.2,i,-1.8
C[C@H]1CN([C@@H](C)CO)C(=O)c2cccc(NC(=O)C3CC3)c2O[C@H]1CN(C)Cc1ccc(-c2ccccc2)cc1,4.9,3.6,.,-34.6,7.7,-5.9,.,.
Cc1cccc(NC(=O)CN(C)S(=O)(=O)c2cnc[nH]2)c1C,1.7,5.6,.,18.3,.,-8.1,.,.
COc1cccc(N(C(=O)c2sc(C)nc2C)C(C(=O)NCC2CCCO2)c2ccccc2)c1 (stereo unspecified),-1.0,3.0,-6.2,8.6,-7.2,-4.8,i,-18.2
CNNC(=O)C(C)NC(=O)c1ccc(Br)cc1 (stereo unspecified),3.5,-0.2,1.5,-42.2,.,-9.2,i,4.2
CCn1c(SCC(=O)Nc2nccs2)nnc1-c1ccc(S(=O)(=O)N2CCCCC2)cc1,8.8,-1.7,-3.4,8.8,-14.1,.,i,9.5
Cc1ccc(CCNS(=O)(=O)c2ccc3c(c2)NC(=O)CCS3)cc1,-2.7,2.1,4.3,3.2,10.2,6.2,i,3.8
CC(C)(C)c1ccc(C(=O)NCC(=O)OCC(=O)N2CCN(S(=O)(=O)c3ccc(Cl)cc3)CC2)cc1,-0.3,-4.0,.,-22.3,-14.4,-15.4,i,.
O=C(OCc1cc(Cl)ccc1OC(F)F)c1cc(S(=O)(=O)O)ccc1O,.,.,22.8,-1.4,.,.,.,-0.9
COc1ccccc1N(CC(O)Cn1ccnc1C)S(=O)(=O)c1ccccc1 (stereo unspecified),-1.6,0.4,-2.9,-2.2,6.5,-10.5,i,11.1
O=C(NCC1CCCO1)NC12CC3CC(CC(C3)C1)C2 (stereo unspecified),-1.5,-0.6,3.1,.,-11.2,-8.2,i,5.3
O=C1N=c2ccccc2=C1c1[nH]c(=S)[nH]c1O,2.7,3.0,1.2,-34.0,-11.0,-11.2,i,1.5
NC(CCC(=O)O)C12CC3CC(CC(C3)C1)C2 (stereo unspecified),-7.4,0.4,-7.3,7.7,-2.3,-5.8,i,3.5
Cc1cccc(NC(=O)CCCC(=O)OC(C)C(=O)c2ccccc2)c1 (stereo unspecified),3.0,4.1,6.2,26.4,-6.4,-8.2,.,-4.7
Cc1ccc(Cl)cc1NC(=O)Cn1cc(C(F)(F)F)cc(Cl)c1=O,-2.0,-3.7,8.7,18.4,-9.2,-3.4,i,-6.4
COc1ccc(Nc2nc(C)nc3c2nnn3Cc2ccccc2Cl)c(OC)c1,-2.3,-0.2,-2.3,4.7,7.7,0.7,i,-11.8
CCN1CCN(C2CCCCC2NS(=O)(=O)c2ccc(Cl)cc2)CC1 (stereo unspecified),-7.1,-0.5,0.3,.,6.2,-10.4,i,0.1
CC(C)Oc1cccc(NC(=O)c2cnccc2C(F)(F)F)c1,1.8,1.7,11.9,0.7,-5.0,0.7,i,3.1
Cc1c(OC(C(=O)O)c2ccccc2)ccc2c1oc(=O)c1ccccc12 (stereo unspecified),0.8,8.8,3.3,-19.1,-10.1,0.3,i,-6.2
Cc1ccc(NC(=O)c2ccc(-n3cccn3)c([N+](=O)[O-])c2)cc1,-5.7,2.4,5.5,-26.0,-5.3,-10.6,i,-0.4
Cc1cc(C(=O)N2CCCC(N3CCN(c4cccc(Cl)c4)CC3)C2)n(C)n1 (stereo unspecified),-0.5,-1.2,6.7,21.6,25.3,2.5,i,1.7
Cc1csc(NC(=O)C(Cc2ccccc2)n2cccc2)n1 (stereo unspecified),-18.7,-16.5,-17.0,-17.1,-6.5,-10.1,i,-14.5

# Some of the entries so far, tab-delimited.
SMILES	MT1-MMP act inh	MT1-MMP act inh RFP	PABP FP inh	Env fusion inh	CSC inhib	Yeast UUG start	Rce1 inh	eIF4H FP inh
NC(CCC(=O)O)C12CC3CC(CC(C3)C1)C2 (stereo unspecified)	-7.4	0.4	-7.3	7.7	-2.3	-5.8	i	3.5
Cc1cccc(NC(=O)CCCC(=O)OC(C)C(=O)c2ccccc2)c1 (stereo unspecified)	3.0	4.1	6.2	26.4	-6.4	-8.2	.	-4.7
Cc1ccc(Cl)cc1NC(=O)Cn1cc(C(F)(F)F)cc(Cl)c1=O	-2.0	-3.7	8.7	18.4	-9.2	-3.4	i	-6.4
COc1ccc(Nc2nc(C)nc3c2nnn3Cc2ccccc2Cl)c(OC)c1	-2.3	-0.2	-2.3	4.7	7.7	0.7	i	-11.8

# Going on with the list.
SMILES,MT1-MMP act inh,MT1-MMP act inh RFP,PABP FP inh,Env fusion inh,CSC inhib,Yeast UUG start,Rce1 inh,eIF4H FP inh
Cc1cc(C)cc(N2CC(C)Cn3c2nc2c3c(=O)[nH]c(=O)n2C)c1 (stereo unspecified),11.2,4.5,3.8,3.6,1.0,-2.2,i,-7.7
COc1cccc(C(=O)Nc2cccc(C(=O)N3CCOCC3)c2)c1,1.9,5.4,-1.5,-47.4,-16.7,.,i,-0.3
CC(Sc1nnnn1-c1ccc(O)cc1)c1nc2ccccc2c(=O)[nH]1 (stereo unspecified),-0.6,0.3,3.0,1.8,-12.0,-8.8,i,-6.9
O=C(Cn1nnc(-c2ccccc2)n1)N/N=C/c1cc([N+](=O)[O-])ccc1O,-6.8,-6.1,?,7.2,-10.1,-17.7,i,-1.7
COc1ccc(NC(=O)n2nc(OC(=O)c3cccs3)cc2N)cc1,5.3,4.2,-9.2,-1.6,-2.3,-20.6,i,-8.0
COc1cccc(C(=O)Nc2cc(Cl)c(O)c(Cl)c2)c1,5.0,-2.1,-0.1,-13.9,0.1,.,i,2.2
Cc1ccc(S(=O)(=O)N2CCCC2C(=O)Nc2ccc(O)cc2)cc1 (stereo unspecified),3.9,3.1,-8.6,17.6,2.6,-4.6,i,-6.7
Cc1ccc(-n2ncc(C(=O)Nc3cc(Cl)cc(Cl)c3)c2C2CCNCC2)cc1C,-3.8,-14.4,0.5,24.0,.,-12.3,i,-4.4
O=C(COC(=O)/C=C/c1cccc(F)c1)NCc1ccc2c(c1)OCO2,-0.2,4.3,.,1.9,.,-11.4,.,.
COc1cccc(CN2CCC2(C)C(=O)Nc2cccc(Oc3ccccc3)c2)c1F (stereo unspecified),-7.3,-7.3,.,20.4,.,-15.0,.,.
S=c1nc(C23CC4CC(CC(C4)C2)C3)nc2sccn12,.,.,-6.0,.,-11.6,.,i,-3.4
CCOC(=O)CSc1ccc2nnc(-c3cccnc3)n2n1,-0.2,2.1,13.8,-14.6,10.3,-2.0,i,-1.6
CCn1cc(C2C3=C(CC(C)(C)CC3=O)N(c3ccccc3)C3=C2C(=O)CC(C)(C)C3)c(C)n1,-2.5,-6.0,-12.8,-29.4,-2.6,.,i,14.3
Cc1cccc(N=N/C(=C\O)C(=O)c2ccc(Br)cc2)c1,2.8,-4.5,10.7,4.3,-5.0,.,i,0.4
O=C(CSc1nc2ccccc2[nH]1)Nc1ccc2[nH]c(=O)[nH]c2c1,0.8,2.7,.,6.6,.,-8.1,.,.
CC(C)(C)c1ccc(-c2noc(CCC(N)=O)n2)cc1,2.7,0.9,-3.6,100.1*,-6.5,-27.5,i,-3.5
Cc1cc(NC(=O)C2CCCC2)nc2c1c(=O)oc1ccccc12,-0.6,-6.9,3.7,.,15.6,-8.1,i,0.6
COc1ccc(NC(=O)/C(C#N)=C/c2c(C)nn(-c3ccc(F)cc3)c2Cl)cc1OC,-9.2,-8.2,0.9,20.2,21.9,6.2,i,2.5
CSCCC(NS(=O)(=O)c1cccc(C(F)(F)F)c1)C(=O)Nc1ccccc1N1CCCC1 (stereo unspecified),-4.4,-3.2,.,25.2,-8.7,-12.6,i,.
O=C(Nc1ccccc1)Oc1cccc(Br)c1,2.7,4.9,-2.3,-11.5,1.3,-1.7,i,-10.0
CCn1c(C(=O)NCc2ccccn2)cc2sccc21,3.6,2.3,-3.0,-40.3,-6.5,-13.9,i,1.3
COc1ccc(-c2nnn(CC(=O)N(CCO)C(C(=O)NC3CCCC3)c3ccncc3)n2)cc1 (stereo unspecified),3.8,5.9,4.2,18.5,-13.3,.,i,-7.6
COc1ccc(-n2nc(C(=O)NCC(=O)Nc3cc(OC)c(OC)c(OC)c3)c3ccccc3c2=O)cc1,-6.8,-1.7,5.2,33.6,-33.3,22.2,i,-6.3
COc1ccc(CNC(=O)Cn2nc([N+](=O)[O-])c(Br)c2C)cc1OC,-5.7,0.8,0.5,-4.1,-8.9,-11.4,i,4.6
CCN(C(=S)NC(=O)CCc1ccccc1)c1ccccc1,-0.2,2.6,-8.7,-13.4,-7.8,.,i,-6.3

# Marked active in Env fusion inh, among the entries above:
canonical_smiles | MT1-MMP act inh | MT1-MMP act inh RFP | Env fusion inh | Yeast UUG start | Rce1 inh
CC(C)(C)c1ccc(-c2noc(CCC(N)=O)n2)cc1 | 2.7 | 0.9 | 100.1* | -27.5 | i

# (cont.)
SMILES,MT1-MMP act inh,MT1-MMP act inh RFP,PABP FP inh,Env fusion inh,CSC inhib,Yeast UUG start,Rce1 inh,eIF4H FP inh
O=S(=O)(c1ccc(S(=O)(=O)N2CCC(O)CC2)cc1)N1CCCC1,0.0,0.0,-0.4,-10.0,.,1.4,i,-4.5
CCOC(=O)c1c(N=CN(C)C)c(C#N)c2n1CCCC2,2.3,-3.0,2.5,-40.0,-3.0,-6.4,i,-1.3
Cc1cc(C)c(NC(=O)CNC(=O)c2cc(C3CC3)nc3c2cnn3C(C)C)c(C)c1,1.4,-3.2,.,-13.7,.,3.0,.,.
CCOC(=O)c1cccc(NC(=O)CCS(=O)(=O)c2ccc(Br)s2)c1,6.6,5.6,7.7,27.1,-6.0,.,i,-8.2
CC(C(=O)O)c1n[nH]c(=O)c2ccccc12 (stereo unspecified),0.3,2.3,3.1,-53.7,4.6,-18.4,i,3.8
Cc1cc(C)c(S(=O)(=O)N2CCCC2)c(C)c1,5.6,2.9,10.9,-10.5,-10.5,-10.7,i,11.3
O=C(O)/C=C/C(=O)N1CCN(c2cccc(Cl)c2)CC1,-2.8,-7.8,5.8,-3.5,-12.0,-12.2,i,-2.3
COC(=O)c1oc(-c2ccccc2)nc1C,0.8,0.5,3.7,-4.6,-0.2,.,i,-13.0
CCc1ccc(NC(=S)N(CCN2CCCCC2)Cc2ccco2)cc1,-1.0,-0.7,0.3,8.1,.,-20.0,i,17.0
COc1cccc(NC(=O)c2ccccc2N2C(=O)C3C4C=CC(C5CC45)C3C2=O)c1 (stereo unspecified),-0.9,-2.2,0.6,47.4,-6.8,1.5,i,12.5
CC(C)c1ccc(NC(=O)COC(=O)C2=COCCO2)cc1,2.3,5.4,5.2,.,4.4,-12.4,i,-8.6
O=C(CN1CCN(CN2C(=O)NC3(CCCCCC3)C2=O)CC1)Nc1ccc(F)cc1,-0.6,1.9,.,9.3,.,-15.9,.,.
O=C(c1ccccc1)[C@@H]1[C@@H](C(=O)c2ccc(F)cc2)[C@@]2(C(=O)Nc3ccccc32)[C@H]2c3ccccc3C=CN12,-61.0,-3.0,1.6,70.7*,18.5,-22.3,i,24.0
